Compound activity as filed in PubChem.
rRNA inh HTS: selective bacterial rRNA inhibition in E. coli; hit rate 1.6% among 350,000; AID 720706; E. coli WT GFP vs humanized-ribosome RFP mutants, fluorescence, 24 h; stronger effect = lower value; DMSO median 0, no signal -100; GFP signal change (wild-type ribosome), % (no concentration beside the values);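 active means significant combined selectivity score with lowered wild-type GFP, culture density cut under 30%, mutant RFP and density less affected; inactive means any of these conditions unmet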; further: one replicate is shown; some compounds called inactive have numbers as strong as hits
T cruzi repl: blocks replication of Trypanosoma cruzi; AID 1885; hit rate 1.4% among 300,000; T. cruzi beta-gal in NIH3T3, luminescence, 90 h; inhibition, % (concentration not given with the values);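 active means mean inhibition across valid replicates above about 55%, limit read from the data; inconclusive means mean below that limit but half or more replicates reach it; inactive means mean below it, under half of replicates reach it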;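 further: signal also drops with host cell toxicity which is not excluded here; 0% = plate median of DMSO wells and 100% = zero luminescence signal; higher percent means less beta-gal luminescence so fewer parasites; stock transfer was 50 nL into about 50 µL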
Calb FLC: affects C. albicans growth with fluconazole; C. albicans CaCi-2 (fluconazole-resistant clinical isolate) + fluconazole, Alamar Blue growth, 48 h; growth inhibition, % (test concentration not listed); hit rate 0.57% among 300,000; AID 1979;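 active means most replicates above 75%; inconclusive means exactly half above 75%; inactive means most below 75%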;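 further: all wells also contain fluconazole at 8 µg/ml as a sub-toxic cotreatment; 0% = median of DMSO wells and 100% = median of geldanamycin control wells; wells of about 8 µL received 7.5 nL stock; the first replicate is given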
Beta apoptosis: beta cell apoptosis inhibition; INS-1E cytokine-induced death, ATP luminescence, 48 h; percent of positive-control rescue, neutral wells zero; AID 435005; hit rate 0.8% among 300,000; protection from apoptosis, % (concentration not given with the values);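 active means all replicates at 75% or more, or half of them and the mean; inconclusive means half reach 75% but not the mean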;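 further: 0% = cytokine-treated negative control wells and 100% = positive control rescue; higher means more ATP so stronger rescue from cytokine killing; wells of about 40 µL received 100 nL stock; the first replicate is given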
B2AR ag: agonists of human beta-2 adrenergic receptor inducing internalization; response, % (concentration not given with the values); hit rate 0.43% among 340,000; Am2.2-beta2AR cells, FAP receptor internalization, flow cytometry; reference of the scale not given here; P07550;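 active means response above a set limit, near 3 SD of response in nonfluorescent compounds, cut at about 42% in these data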;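 further: stock transfer was 100 nL into about 11 µL; a reference agonist was the positive control; negative values mostly stem from fluorescent compounds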
Bfl-1 A1 inh: inhibitors of the anti-apoptotic protein A1, read as caspase activation; MEF A1-2A-BIM cells, Caspase-Glo 3/7 luminescence, 3 h; percent of clofoctol response, vehicle zero; caspase activation, % (test concentration not listed); hit rate 0.066% among 330,000;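 active means over half of replicate activation scores above 10%, or exactly half above 10 with the replicate mean above 10; inconclusive means replicate mean below 10 yet half the replicates above 10; inactive means over half of replicates below 10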;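 further: wells of about 30 µL received 50 nL stock; many hits fall short of the cut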
ALR H2O2 inh: human ALR oxidase inhibition via reduced H2O2; hit rate 3.8% among 290,000; AID 485317; purified ALR, DTT oxidation, H2O2 HRP-luminol luminescence; inhibition, % (concentration not given with the values);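 active means mean and each replicate at 75% or more; inconclusive means only one of the two met; inactive means neither met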;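 further: stock transfer was 7.5 nL into about 7.5 µL; 0% = neutral wells and 100% = wells with inactivated enzyme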
LANA-H2B inh: blocks KSHV LANA binding to histone H2A/H2B | hit rate 0.6% among 320,000 | inhibition, % (no concentration beside the values) | AID 2629 | cell-free LANA-H2A/H2B peptide, fluorescence polarization | Q9QR71; in the data active means inhibition mostly above about 10%, no sharp cut-off; inactive means mostly below about 6.7%;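 further: stock transfer was 7.5 nL into about 10 µL; 0% = median of vehicle wells and 100% = median of positive control wells; one replicate is shown; the record names a cut of 25% in any replicate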
Target sequence (Q9QR71 whole entry, looked up): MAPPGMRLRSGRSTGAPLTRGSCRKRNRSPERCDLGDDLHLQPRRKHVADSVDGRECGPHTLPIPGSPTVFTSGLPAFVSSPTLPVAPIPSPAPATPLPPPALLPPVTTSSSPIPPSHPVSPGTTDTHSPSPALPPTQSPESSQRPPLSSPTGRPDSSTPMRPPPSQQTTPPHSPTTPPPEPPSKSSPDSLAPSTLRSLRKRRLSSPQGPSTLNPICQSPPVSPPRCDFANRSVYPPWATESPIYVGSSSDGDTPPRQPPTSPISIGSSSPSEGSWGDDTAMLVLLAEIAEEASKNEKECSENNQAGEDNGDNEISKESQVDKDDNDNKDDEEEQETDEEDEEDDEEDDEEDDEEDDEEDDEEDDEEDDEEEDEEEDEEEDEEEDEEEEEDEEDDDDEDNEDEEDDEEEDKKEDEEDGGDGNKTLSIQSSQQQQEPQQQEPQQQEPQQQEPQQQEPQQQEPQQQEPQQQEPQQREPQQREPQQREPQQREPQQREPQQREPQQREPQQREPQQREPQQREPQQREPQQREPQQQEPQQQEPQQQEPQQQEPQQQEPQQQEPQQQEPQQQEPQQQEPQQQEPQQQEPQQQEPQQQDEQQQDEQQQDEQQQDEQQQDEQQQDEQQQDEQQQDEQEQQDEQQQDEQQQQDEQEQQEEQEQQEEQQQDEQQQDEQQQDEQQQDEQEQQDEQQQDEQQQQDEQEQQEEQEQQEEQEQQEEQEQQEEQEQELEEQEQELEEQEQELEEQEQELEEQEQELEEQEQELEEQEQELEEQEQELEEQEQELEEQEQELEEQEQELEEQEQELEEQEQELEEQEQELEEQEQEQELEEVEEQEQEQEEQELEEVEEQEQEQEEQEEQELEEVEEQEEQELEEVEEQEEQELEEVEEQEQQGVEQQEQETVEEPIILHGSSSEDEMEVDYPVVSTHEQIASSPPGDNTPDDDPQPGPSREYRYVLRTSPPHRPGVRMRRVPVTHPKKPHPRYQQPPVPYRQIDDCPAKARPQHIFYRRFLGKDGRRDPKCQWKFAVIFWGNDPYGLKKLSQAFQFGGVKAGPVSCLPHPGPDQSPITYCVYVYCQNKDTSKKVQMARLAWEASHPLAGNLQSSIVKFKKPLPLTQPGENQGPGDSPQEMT
rRNA inh HTS OD600: recorded beside rRNA inh HTS, whose call it bears; OD600 change, %; measured here: OD600 growth;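 optical density of the mix in the first replicate; 0 = DMSO median and -100 = no signal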
rRNA inh HTS RFP: also measured in rRNA inh HTS; calls as there; RFP signal change, %; measured here: RFP humanized mutant strains;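 first replicate; 0 = DMSO median and -100 = no signal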
Numbers without * were called inactive; ? = inconclusive; . = no result given. These rows are one share of the data; rates above refer to the full screens.

SMILES | rRNA inh HTS | rRNA inh HTS OD600 | rRNA inh HTS RFP | T cruzi repl | Calb FLC | Beta apoptosis | B2AR ag | Bfl-1 A1 inh | ALR H2O2 inh | LANA-H2B inh
Cc1ccc(Sc2nc(C)cc(C)c2S(C)(=O)=O)cc1 | . | . | . | 2 | 3 | -2 | -7 | 0.1 | 0 | -3.2
O=C(NNC(=O)c1c(F)cccc1F)c1ccccc1-n1cccc1 | 10 | 2 | -7.4 | -11 | 43 | -6 | -1 | -0.5 | . | 0.7
COc1cccc(NC(=O)CNC(C)CCC(C)C)c1 (stereo unspecified) | . | . | . | -19 | 2 | 3 | 1 | -1.2 | -15 | -8.0
Cc1ccc(O)c(C(=O)c2cnc3c(c2)COc2ccc(C)cc2-3)c1 | . | . | . | -6 | 9 | -3 | 3 | -0.6 | . | -1.9
CC(C)c1cc(=O)n2[nH]c(SCc3ccc(Cl)cc3)nc2n1 | -19 | -42 | -0.2 | -1 | 33 | -7 | -6 | 1.2 | 2 | -4.7
NS(=O)(=O)c1ccc(CNC(=S)NCc2ccc(Cl)cc2)cc1 | . | . | . | 6 | -5 | 7 | 20 | 0.6 | -6 | 0.4
O=C(CCCOc1ccccc1)Nc1cc(S(=O)(=O)N2CCOCC2)ccc1N1CCOCC1 | 2 | 6 | 1.5 | . | . | -2 | -8 | 0.4 | . | 13
CC(C)CN(C(=O)COC(=O)c1cnc(Cl)c(Cl)c1)c1c(N)n(Cc2ccccc2)c(=O)[nH]c1=O | 8 | 16 | -2.1 | -22 | -2 | 1 | -7 | 0.5 | -3 | -1.4
O=C1c2cccc3cccc(c23)C(=O)N1CCN1CCN(CC(O)COc2ccc3ccccc3c2)CC1 (stereo unspecified) | -11 | -20 | 33 | 34 | 20 | 47 | 5 | 0.2 | -9 | 4.4
CC(=O)c1sc(C(C)(C)C)cc1NC(=O)c1ccccc1C(=O)O | -8 | 4 | 1.3 | -5 | 5 | -11 | -3 | -1.6 | 29 | 2.4
Cc1ccc(N2CC(C(=O)N3CCC(C(=O)NC(C)(C)C)CC3)CC2=O)cc1 (stereo unspecified) | 5 | 7 | 1.7 | -20 | 1 | -1 | 11 | -0.3 | -1 | -5.8
CCOC(=O)c1ccc(NS(C)(=O)=O)cc1 | . | . | . | -7 | 3 | -7 | 0 | -1.9 | -7 | -0.8
COC(=O)C(Cc1ccc(O)cc1)N1Cc2ccccc2C1=O (stereo unspecified) | -7 | -13 | 0.8 | -14 | 12 | -2 | 5 | -3.2 | 38 | -1.3
Cc1cc(C)cc(OCC(=O)N(Cc2cccs2)C2CCS(=O)(=O)C2)c1 (stereo unspecified) | . | . | . | 20 | 7 | 2 | -1 | 0.0 | -2 | 0.0
CCOC(=O)c1[nH]cnc1C(=O)NC1CCN(C(=O)OC(C)(C)C)CC1 | -1 | 2 | 2.7 | . | . | -3 | -1 | 0.2 | 1 | 0.7
O/N=C/c1ccc(-c2cc(Cl)ccc2Cl)o1 | . | . | . | 10 | -2 | 0 | 2 | -0.8 | -12 | 0.1
CNC(=O)c1nn(-c2ccccc2)ccc1=O | . | . | . | -14 | -9 | -10 | 20 | -0.8 | -6 | 2.8
O=C(COc1ccccc1)NNc1c2ccccc2nc2ccccc12 | . | . | . | 0 | 21 | 0 | 4 | 0.7 | 98* | 0.1
CN(C(=O)COc1ccc(-c2nnco2)cc1)C1CCS(=O)(=O)C1 (stereo unspecified) | 8 | 15 | -1.2 | -8 | 32 | -5 | -3 | -0.2 | -9 | 2.2
COC(=O)c1ccccc1NC(=O)c1ccc(-c2ccccc2F)o1 | . | . | . | 15 | 2 | 17 | -5 | -0.1 | -2 | -4.8
CCN(C(=O)COC(=O)c1cccnc1SC)C1CCCCC1 | 10 | 4 | -0.9 | . | . | -4 | 0 | 0.2 | -6 | -1.9
Cc1ccc(-n2c(Cn3c(C)nc4ccccc43)n[nH]c2=S)cc1 | 4 | 1 | -1.8 | -15 | 6 | -4 | 5 | 1.1 | 36 | 3.2
Cc1oc2c(c(=O)c1C)C(=O)CC(c1ccccc1)C2 (stereo unspecified) | . | . | . | -7 | -2 | . | 4 | 0.5 | . | -0.7
CN(C1CCCC1)C1CCN(C(=O)CNC(=O)/C=C/c2ccccc2)CC1 | . | . | . | 14 | -13 | 0 | 2 | 1.2 | -4 | -5.4
Cc1c(NC(=O)c2cccc(S(=O)(=O)N3CCOCC3)c2)c(=O)n(-c2ccccc2)n1C | 9 | 2 | 2.5 | 12 | -16 | -2 | -3 | -0.5 | -1 | 0.2
The listing continues.
SMILES | rRNA inh HTS | rRNA inh HTS OD600 | rRNA inh HTS RFP | T cruzi repl | Calb FLC | Beta apoptosis | B2AR ag | Bfl-1 A1 inh | ALR H2O2 inh | LANA-H2B inh
Cc1nc(C)c(C(=O)Nc2cccc(C)c2C)s1 | 8 | 12 | -2.6 | -14 | -4 | -3 | -7 | -0.3 | -6 | 1.0
O=S(=O)(c1ccccc1)c1nc(-c2ccc(F)cc2)oc1NCC1CCCO1 (stereo unspecified) | 1 | -3 | -0.4 | . | . | -3 | -4 | 0.4 | 7 | -0.4
CCOC(=O)[C@@H]1[C@H]2COc3cc(OC)ccc3[C@H]2N2C(=O)N(c3cccc(Cl)c3)C(=O)[C@@]12C | . | . | . | 21 | -18 | 9 | 4 | -0.9 | -2 | -0.9
CC(=O)NCN1CCN(CNC(C)=O)CC1 | . | . | . | -9 | -4 | -7 | -1 | -0.4 | -11 | -2.1
CCOc1ccc(C(C(=O)NCC2CCCO2)N(Cc2cccs2)C(=O)c2snc(C(N)=O)c2N)cc1 (stereo unspecified) | 7 | 6 | 4.5 | 5 | -9 | 5 | 6 | 0.3 | 3 | 7.7
COc1cc2c(cc1/C=C1/NC(=O)N(CC(=O)Nc3ccccc3)C1=O)OCO2 | 4 | -1 | 2.3 | 6 | 16 | -1 | -1 | 0.0 | -22 | -2.0
CC(C)[C@H](NS(=O)(=O)c1ccccc1)C(=O)OCC(=O)NC1CCCCC1 | 4 | 9 | -2.6 | . | . | -8 | 6 | 0.3 | . | 3.7
Cc1cc(C)c(S(=O)(=O)N2CCOC2CNC(=O)C(=O)NCc2ccco2)c(C)c1 (stereo unspecified) | 1 | 0 | -2.1 | -8 | -12 | -1 | 14 | 0.7 | 0 | 7.0
N#CC1(c2ccccc2)CCC(=NO)CC1 (stereo unspecified) | . | . | . | -3 | -1 | 2 | 8 | 0.2 | -22 | 3.3
CCOC(=O)c1c(C)[nH]c(C(=O)CN2C(=O)NC(CC)(c3ccccc3)C2=O)c1C (stereo unspecified) | . | . | . | 17 | -7 | 0 | -2 | 0.0 | 3 | 0.5
O=C(NCCc1ccccc1)C1CCC(=O)N1C1CCCC1 (stereo unspecified) | 4 | 14 | 4.2 | -5 | -5 | -5 | -6 | -0.8 | -3 | -0.1
COc1ccc(OC)c(N2C(=O)[C@@H]3C(c4ccccc4Cl)=NO[C@@H]3C2=O)c1 | . | . | . | -8 | 12 | -4 | -7 | 0.2 | -14 | 2.0
Cc1cccc(C)c1NC(=O)C1=C(O)c2sccc2N(C)S1(=O)=O | 5 | 2 | 0.7 | -13 | 7 | -8 | 2 | 0.9 | -16 | 3.2
COc1cccc(C2=NOC(C(=O)N3CCOCC3)C2)c1 (stereo unspecified) | . | . | . | -5 | -12 | 1 | 5 | 0.0 | -2 | -1.0
O=C(CN1CCN(CC(=O)Nc2ccccc2Cl)CC1)NCC1(N2CCCCC2)CCCCC1 | 9 | 2 | 3.8 | . | . | -4 | -2 | 0.1 | -4 | 3.5
Cc1nn(C)c(C)c1CN(C)S(=O)(=O)c1ccc(F)cc1 | . | . | . | 2 | 14 | 4 | 5 | -1.0 | 0 | -0.6
Cn1nnnc1SCC(=O)N1CCN(c2ccc(Cl)cc2)CC1 | . | . | . | -3 | -13 | -2 | -1 | -0.9 | ? | -2.1
O=C(CCn1nc(-c2ccc(F)cc2)ccc1=O)NCc1ccccc1 | . | . | . | 8 | -4 | -6 | -15 | 0.4 | -1 | -0.5
NC(=O)COC(=O)CNC(=O)c1cc(Cl)cc([N+](=O)[O-])c1 | 23 | 25 | 3.4 | -3 | 29 | 2 | -2 | 1.0 | -22 | -4.2
Cc1cc(SCC(=O)N/N=C/c2ccc(O)c(O)c2)c(C)cc1Br | . | . | . | -44 | -2 | 5 | 10 | 0.5 | 99* | -6.1
CCOC(=O)/C(C#N)=C/c1ccc(OCC(=O)Nc2ccc(OC)cc2)c(OC)c1 | . | . | . | -14 | 2 | -5 | 6 | 0.6 | 2 | 1.4
Cc1ccc(C)n1-c1ccc2c(c1)COC2=O | . | . | . | -1 | -19 | -5 | . | 0.4 | -10 | -3.7
COc1ccc(S(=O)(=O)n2cccc2)cc1OC | 5 | 8 | -0.3 | 1 | 3 | -3 | 0 | 0.6 | -13 | -0.5
O=C(CN1CCN(c2ccccc2O)CC1)NC(=O)NCc1ccccc1 | -2 | -8 | 1.6 | . | . | -1 | -10 | 1.6 | 13 | 2.7
CCOC(=O)c1ccc2c(c1)nc(C1CCN(S(=O)(=O)c3cccs3)CC1)n2CC | . | . | . | 43 | 15 | 11 | -8 | -0.9 | -4 | 2.5
(listing goes on)
SMILES | rRNA inh HTS | rRNA inh HTS OD600 | rRNA inh HTS RFP | T cruzi repl | Calb FLC | Beta apoptosis | B2AR ag | Bfl-1 A1 inh | ALR H2O2 inh | LANA-H2B inh
CCC(N=c1cc(-c2ccc(OC)c(OC)c2)oc2ccc(C)cc12)C(=O)O (stereo unspecified) | -2 | -8 | -4.8 | 12 | 4 | 2 | -16 | 0.1 | 1 | 4.7
O=C(C1=C[C@@H](C2CC2)C[C@@H](OCc2ccc(CO)cc2)O1)N1CCN(Cc2ccc3c(c2)OCO3)CC1 | -29 | -50 | -14 | 20 | -17 | 2 | -1 | -0.3 | -4 | -4.3
O=C(c1cccc(S(=O)(=O)N2CCOCC2)c1)N1CCCCCC1 | . | . | . | -5 | -4 | 0 | 4 | 0.1 | -14 | -0.3
O=C(CSc1ncccn1)Nc1ccc2c(c1)CCC2 | -5 | -2 | -5.9 | 9 | -6 | -2 | -7 | 0.5 | 11 | 0.8
COc1ccc(S(=O)(=O)Oc2cccc(C(=S)N3CCOCC3)c2)cc1 | -1 | 1 | 0.7 | -10 | -9 | . | -5 | 0.6 | 3 | -11
CC(C)(C)c1ccc(OCC(=O)NNC(=O)Nc2ccccc2)cc1 | -21 | -15 | -3.8 | 0 | 13 | -3 | 2 | 0.6 | -35 | 6.8
CCC(C)(C(=O)NC1CCCCC1)N(C(=O)Cc1cccs1)c1ccccc1 (stereo unspecified) | . | . | . | 1 | 20 | 2 | 3 | 1.3 | -3 | 3.9
CC(C)c1nc(SCC(=O)N2CCc3ccccc32)n[nH]1 | 5 | 4 | 2.6 | -14 | -3 | -3 | -1 | 1.3 | -3 | 1.2
CC1(c2ccccc2Cl)NC(=O)N(CC(=O)N2CCc3ccccc32)C1=O (stereo unspecified) | -13 | -12 | 6.0 | . | . | -2 | -5 | -0.6 | -6 | 1.0
Cc1ccccc1NC(=O)c1ccc(F)c(S(=O)(=O)N2CCN(c3ccccn3)CC2)c1 | 16 | 11 | -7.4 | 6 | -7 | 0 | -7 | -0.2 | -25 | -5.6
